Beta apoptosis = beta cell apoptosis inhibition | INS-1E cytokine-induced death, ATP luminescence, 48 h; percent of positive-control rescue, neutral wells zero | protection from apoptosis, % (concentration not given with the values) | 0.8% of 300,000 active | AID 435005;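 active = all replicates at 75% or more, or half of them and the mean; inconclusive = half reach 75% but not the mean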;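 also: 0% = cytokine-treated negative control wells and 100% = positive control rescue; higher means more ATP so stronger rescue from cytokine killing; wells of about 40 µL received 100 nL stock; the first replicate is given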
Ecoli rRNA inh = inhibitors of bacterial rRNA selective over humanized ribosomes | E. coli WT GFP vs humanized-ribosome RFP mutants, fluorescence, 24 h; stronger effect = lower value; DMSO median 0, no signal -100 | 1.6% of 350,000 active | GFP signal change (wild-type ribosome), % (test concentration not listed);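 active = significant combined selectivity score with lowered wild-type GFP, culture density cut under 30%, mutant RFP and density less affected; inactive = any of these conditions unmet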; also: one replicate is shown; some compounds called inactive have numbers as strong as hits
Bfl-1 A1 inh = inhibitors of the anti-apoptotic protein A1, read as caspase activation | MEF A1-2A-BIM cells, Caspase-Glo 3/7 luminescence, 3 h; percent of clofoctol response, vehicle zero | caspase activation, % (test concentration not listed) | 0.066% of 330,000 active;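 active = over half of replicate activation scores above 10%, or exactly half above 10 with the replicate mean above 10; inconclusive = replicate mean below 10 yet half the replicates above 10; inactive = over half of replicates below 10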;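 also: wells of about 30 µL received 50 nL stock; many hits fall short of the cut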
RanGTP-Impb inh = inhibitors of RanGTP-importin-beta interaction, primary screen, biochemical, FRET, CFP-Ran, YFP-importin-beta, homogeneous; cell-free CFP-Ran/YFP-importin-beta FRET ratio; inhibition, % (concentration not given with the values); 1.1% of 300,000 active; AID 2216;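 active = most replicates above 15%; inconclusive = exactly half above 15%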;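 also: 0% = DMSO wells and 100% = Ran loaded with GDP instead of GTP; wells of about 40 µL received 100 nL stock; the first replicate is given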
AF4-AF9 inh = inhibitors of human MLL-AF4/AF9 interaction | AlphaScreen, biotin-AF4 peptide binding to FLAG-AF9 | 0.47% of 350,000 active | inhibition, % at 10 µM;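 active = every replicate reaching a set inhibition limit, whatever the replicate mean, cut at about 25% in these data; inconclusive = mean inhibition reaches that limit but some replicates miss it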;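 also: 0% = plate neutral control median and 100% = total signal loss; the record names both 10 and 1 µM as test concentration; the first replicate is given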
Target sequence (P42568 whole entry, looked up): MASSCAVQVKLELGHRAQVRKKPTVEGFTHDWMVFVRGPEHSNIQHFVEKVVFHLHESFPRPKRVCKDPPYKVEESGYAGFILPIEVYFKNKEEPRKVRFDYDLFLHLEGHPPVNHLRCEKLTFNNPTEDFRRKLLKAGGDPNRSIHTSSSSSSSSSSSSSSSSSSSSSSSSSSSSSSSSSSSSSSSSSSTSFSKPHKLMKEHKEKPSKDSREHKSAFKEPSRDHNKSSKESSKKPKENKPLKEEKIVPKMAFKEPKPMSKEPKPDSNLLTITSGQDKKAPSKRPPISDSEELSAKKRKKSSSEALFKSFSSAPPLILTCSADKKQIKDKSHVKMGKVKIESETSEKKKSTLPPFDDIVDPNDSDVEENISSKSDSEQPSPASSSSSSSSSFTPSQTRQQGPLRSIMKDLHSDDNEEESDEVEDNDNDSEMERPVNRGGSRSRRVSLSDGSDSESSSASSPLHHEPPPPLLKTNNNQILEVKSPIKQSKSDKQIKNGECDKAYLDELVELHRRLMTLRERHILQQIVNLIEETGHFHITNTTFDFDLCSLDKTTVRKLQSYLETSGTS
Vif A3G = inhibitors of Vif binding to APOBEC3G peptide, primary screen, biochemical, TR-FRET, GST-Vif 1-94, biotin-A3G peptide, dose response retest (AID 1117319); 0.57% of 260,000 active; inhibition, %, or IC50 in µM where a hit was titrated; TR-FRET GST-Vif / biotin-A3G peptide binding; higher % means a stronger effect; test concentration not given here; strong numbers were not always called active;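 active = above the screen mean plus three standard deviations and confirmed in dose response; inconclusive = results disagree or hit not tested in dose response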;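 also: Vif residues 1-94 fused to GST binding biotinylated APOBEC3G peptide 110-148; 0% = full assay without inhibitor and 100% = GST in place of GST-Vif; retest series ran down from 100 µM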
T cruzi inh = blocks replication of Trypanosoma cruzi; AID 1885; 1.4% of 300,000 active; T. cruzi beta-gal in NIH3T3, luminescence, 90 h; inhibition, % (test concentration not listed);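 active = mean inhibition across valid replicates above about 55%, limit read from the data; inconclusive = mean below that limit but half or more replicates reach it; inactive = mean below it, under half of replicates reach it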;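 also: signal also drops with host cell toxicity which is not excluded here; 0% = plate median of DMSO wells and 100% = zero luminescence signal; higher percent means less beta-gal luminescence so fewer parasites; stock transfer was 50 nL into about 50 µL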
Calb FLC = C. albicans growth modulation with fluconazole; C. albicans CaCi-2 (fluconazole-resistant clinical isolate) + fluconazole, Alamar Blue growth, 48 h; growth inhibition, % (test concentration not listed); 0.57% of 300,000 active; AID 1979;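 active = most replicates above 75%; inconclusive = exactly half above 75%; inactive = most below 75%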;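 also: all wells also contain fluconazole at 8 µg/ml as a sub-toxic cotreatment; 0% = median of DMSO wells and 100% = median of geldanamycin control wells; wells of about 8 µL received 7.5 nL stock; the first replicate is given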
Ecoli rRNA inh OD600 = also measured in Ecoli rRNA inh; calls as there; OD600 change, %; measured here: OD600 growth;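 optical density of the mix in the first replicate; 0 = DMSO median and -100 = no signal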
Ecoli rRNA inh RFP = recorded beside Ecoli rRNA inh, whose call it bears; RFP signal change, %; measured here: RFP humanized mutant strains;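 first replicate; 0 = DMSO median and -100 = no signal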
Active calls of the source: *; ? = inconclusive; . = no result given. An excerpt, so the mix of outcomes need not match the whole.

SMILES	Beta apoptosis	Ecoli rRNA inh	Ecoli rRNA inh OD600	Ecoli rRNA inh RFP	Bfl-1 A1 inh	RanGTP-Impb inh	AF4-AF9 inh	Vif A3G	T cruzi inh	Calb FLC
COc1ccc(NC(=O)c2sc(=S)[nH]c2N)cc1	.	.	.	.	-2.7	3.6	.	5%	0	-3
O=C(NC(=S)NC1CCCCCC1)c1cncc(Br)c1	4	.	.	.	0.2	-0.6	.	.	-27	3
O=C(C1COc2ccccc2O1)N1CCN(c2ccc(C(F)(F)F)cn2)CC1 (centres undefined)	3	-5	-5	-3.0	0.0	.	-3.6	.	.	.
CCCCn1c(C(C)O)nc2ccccc21 (centres undefined)	-4	.	.	.	1.1	-1.7	.	-3%	1	3
CCCN(CCC)CCNC(=O)Cn1cnc2sc(C)c(S(=O)(=O)N3CCOCC3)c2c1=O	-2	.	.	.	-0.2	2.2	.	.	-8	7
Cc1ccc(S(=O)(=O)N2CCC3(CC2)OCCO3)c(C)c1	2	15	-2	1.2	-0.4	-4.2	-1.1	2%	-6	-2
CCOC(=O)c1c(C)[nH]c(C)c1S(=O)(=O)NCCc1sccc1C	-9	3	3	2.2	?	-3.1	2.2	.	-9	5
COc1ccccc1CNC(=O)CN1C(=O)NC2(CCCCCC2)C1=O	5	-1	-5	-2.9	-0.8	.	-3.3	-3%	.	.
COc1cc(/C=N/NC(=O)c2ccc(NS(=O)(=O)c3cccs3)cc2)cc(OC)c1O	-3	-1	-6	0.3	-1.4	.	2.4	68%	.	.
O=C(C1CC(=O)N(c2ccc(F)cc2)C1)N1CCOCC1 (centres undefined)	5	18	8	2.4	0.4	3.2	-0.4	.	-15	-1
CCN(CC)CCCN=Cc1c(O)n(-c2ccc(C)cc2)c(=O)c2ccccc12	-4	4	-2	-0.2	0.5	2.8	-1.8	?	12	-9
C#CCOCCOCCOCCNc1nc(N2CCN(C(=O)[C@H](CCC(=O)O)n3cc(C(N)Cc4ccc(O)cc4)nn3)CC2)nc(N2CCN(C(=O)[C@H](CCC(=O)O)n3cc(C(N)Cc4ccc(O)cc4)nn3)CC2)n1 (some centres undefined)	-14	11	27	2.2	-1.0	-1.2	1.6	9%	-29	-5
NC(=O)CNC(=O)C1CCCc2c1[nH]c1ccc(Cl)cc21 (centres undefined)	-3	-4	-9	0.6	0.1	-0.8	.	5%	-15	11
NC(=O)CSc1n[nH]c(=O)n1CCc1ccccc1	1	3	4	-0.6	-0.6	3.0	-2.5	-3%	-27	-3
CC(C)CCNC(=S)Nc1ccccn1	2	.	.	.	-0.4	0.2	.	.	-25	-6
O=C(NCc1ccccc1)C(c1cccnc1)N(C(=O)c1csnn1)c1ccccc1 (centres undefined)	-5	4	9	0.4	-0.7	6.6	1.7	29%	3	-9
CC(C)(C)c1ccc(-n2ncc3c2CCCC3NC(=O)CCN2CCCCC2=O)cc1 (centres undefined)	.	-8	-4	-0.8	-0.8	1.9	-3.2	-9%	-7	4
CC(=O)NNC(=O)c1sc(=S)n(C)c1C	0	12	14	0.2	-0.4	-0.5	.	0%	-3	19
CCCn1c(N)c(N2CCCCC2)c(=O)n(CC(=O)Nc2ccccc2C)c1=O	-4	.	.	.	0.2	5.7	.	?	2	-2
O=C(COC(=O)COc1ccccc1)Nc1ccc(OC(F)(F)F)cc1	3	12	-3	-0.2	0.4	6.2	.	-9%	-11	12
CC(=O)N(NC(=O)c1ccccc1Cl)C1CC(=O)N(c2ccc(C)cc2)C1=O (centres undefined)	.	.	.	.	-0.4	-3.5	.	-6%	-9	-9
COc1ccc(CNS(=O)(=O)NCc2ccccc2F)cc1	-2	1	-2	0.4	-0.2	-0.3	-0.5	.	3	-4
O=C(CSc1nnc(-c2ccccc2)n1Cc1ccccc1)N1CCOCC1	.	.	.	.	0.0	0.8	.	-5%	-1	-17
O=C(Nc1ccccc1C(=O)NCc1cccnc1)c1ccco1	0	.	.	.	1.0	8.5	.	1%	-1	-4
CC(=O)c1c(N2CCCC2)[nH]c(-c2ccccc2)nc1=S	3	8	3	4.2	-0.7	2.8	-7.7	-1%	6	-4

The final 5 records of the part before lead into the next:
SMILES	Beta apoptosis	Ecoli rRNA inh	Ecoli rRNA inh OD600	Ecoli rRNA inh RFP	Bfl-1 A1 inh	RanGTP-Impb inh	AF4-AF9 inh	Vif A3G	T cruzi inh	Calb FLC
CC(=O)N(NC(=O)c1ccccc1Cl)C1CC(=O)N(c2ccc(C)cc2)C1=O (centres undefined)	.	.	.	.	-0.4	-3.5	.	-6%	-9	-9
COc1ccc(CNS(=O)(=O)NCc2ccccc2F)cc1	-2	1	-2	0.4	-0.2	-0.3	-0.5	.	3	-4
O=C(CSc1nnc(-c2ccccc2)n1Cc1ccccc1)N1CCOCC1	.	.	.	.	0.0	0.8	.	-5%	-1	-17
O=C(Nc1ccccc1C(=O)NCc1cccnc1)c1ccco1	0	.	.	.	1.0	8.5	.	1%	-1	-4
CC(=O)c1c(N2CCCC2)[nH]c(-c2ccccc2)nc1=S	3	8	3	4.2	-0.7	2.8	-7.7	-1%	6	-4
CC(=O)Nc1cc(S(=O)(=O)Nc2ccccc2)c(C)cc1C	4	.	.	.	0.2	0.7	.	2%	-3	24
CCOC1=C/C(=C/c2c(N)n3nc(CC(=O)N4CCCCC4)sc3nc2=O)C=CC1=O	-1	4	5	5.2	0.6	2.5	-6.6	.	4	-8
CC(C)CC(=O)N1CCN(C(=O)c2cccc(F)c2)CC1	-4	.	.	.	-0.9	1.8	.	-7%	-6	-5
CCCCN(C)CCC(=O)Nc1ccc2c(c1)CCC2	0	4	5	-1.1	0.2	2.1	1.8	1%	14	9
CN(C(=O)C1CCC(=O)N(CCCN2CCCC2=O)C1)C(C1CC1)C1CC1 (centres undefined)	-3	4	17	-2.1	0.0	1.1	-16	.	-8	-1
Cc1cc(C(=O)NCC(c2ccco2)N(C)C)no1 (centres undefined)	-6	.	.	.	0.2	2.3	.	?	-2	-3
CCCCc1ccc(NC(=O)N[C@H](C(=O)O)C(C)CC)cc1 (some centres undefined)	2	.	.	.	0.3	1.3	.	3%	-12	-2
COc1ccc(OC)c(C2CC(=O)OC3=C2C(=O)CC(C)(C)C3)c1 (centres undefined)	-7	2	1	-3.1	-0.1	1.3	-2.2	-8%	-2	20
CC1CCN(CCNC(=O)C2CCN(S(=O)(=O)c3cccc4nsnc34)CC2)CC1	-2	5	5	-2.6	-0.3	1.7	-4.4	.	-8	-9
COc1cccc(NS(=O)(=O)c2ccc(-n3cccn3)cc2)c1	5	4	-12	4.4	-0.5	-3.1	-2.0	5%	11	-4
COc1ccc(C(=O)Nc2cc(-c3ccccc3)nn2-c2ccccc2F)cc1	-1	-16	-12	-3.3	-0.4	.	-0.2	.	.	.
CCOc1nc(-c2ccccc2)ccc1-c1noc(-c2cccnc2)n1	-6	14	-1	1.2	-0.3	-9.7	-18	.	8	-13
COc1ccc(CCNC(=O)C2CC(=O)N(C3CCCCCCC3)C2)cc1OC (centres undefined)	-1	.	.	.	0.5	-3.0	.	-2%	-2	-28
Cc1noc(C)c1C(=O)N1CCN(S(=O)(=O)c2ccc(F)cc2)CC1	3	21	18	1.9	-0.6	1.1	-1.6	-4%	-7	0
CON(C)S(=O)(=O)c1ccc2c(c1)NC(=O)C1CCCN21 (centres undefined)	-2	.	.	.	-0.2	-0.4	.	0%	-5	?
O=C(COc1cc([N+](=O)[O-])cc2cccnc12)NCCC1=CCCCC1	6	-11	-20	-3.5	-0.2	-1.1	2.3	-6%	13	18
COc1cccc(C(=O)Nc2cccc3ccccc23)c1	-4	5	12	0.3	-1.1	-4.1	-4.6	-10%	11	-8
Cc1ccc(-c2cc(C(=O)Nc3cc(C(=O)O)ccc3C)c3ccccc3n2)cc1	-2	6	8	2.6	0.1	3.2	-2.6	8%	-16	-6
CC(OC(=O)CCN1C(=O)C2CC=CCC2C1=O)C(=O)Nc1cccc(C#N)c1 (centres undefined)	0	6	9	0.0	-1.4	-5.4	1.8	3%	-4	-5
CCSc1nnc(NC(=O)[C@@H](NC(=O)c2ccc(C(C)(C)C)cc2)C(C)C)s1	1	.	.	.	-0.3	1.4	1.1	.	7	5
Cc1noc(NS(=O)(=O)c2ccc(N/C=C\C(=O)c3ccc(Br)cc3)cc2)c1C	3	-17	-19	2.3	0.8	3.5	0.5	?	-11	0
O=C(NCCC(NS(=O)(=O)OCC(Cl)(Cl)Cl)c1ccccc1)C(F)(F)F (centres undefined)	-1	-3	3	1.4	0.3	3.5	2.6	.	-11	-2
Nc1nc2c(ncn2COCCO)c(=O)[nH]1	-4	.	.	.	-0.6	8.0	1.6	28%	-4	.
COC(=O)c1ccc2c(=O)n(CC3CCCO3)c(SCC(=O)NCCc3ccc(S(N)(=O)=O)cc3)nc2c1 (centres undefined)	4	10	14	7.4	0.3	-4.4	-9.8	18%	16	46
COC(=O)c1ccccc1NC(=S)NC(=O)COc1ccccc1Cl	0	.	.	.	-0.2	0.0	.	-4%	-16	-7
New compounds follow.
SMILES	Beta apoptosis	Ecoli rRNA inh	Ecoli rRNA inh OD600	Ecoli rRNA inh RFP	Bfl-1 A1 inh	RanGTP-Impb inh	AF4-AF9 inh	Vif A3G	T cruzi inh	Calb FLC
C=CCNC(=O)C1CCN(c2ccc(S(=O)(=O)N3CCOCC3)cc2Cl)CC1	1	-4	1	-0.4	0.7	-0.6	-5.3	9%	20	-4
Cc1cc(C)cc(N(CC(=O)NCc2ccco2)S(=O)(=O)c2ccccc2)c1	-7	-3	1	2.1	0.1	0.0	-0.2	.	22	-1
CCOC(=O)C1CCN(c2cc3c(cc2NC(=O)c2ccccc2F)n(C)c(=O)n3C)CC1	5	2	5	-1.7	0.1	-27	3.4	-14%	9	24
CCCCCCC(=O)Nc1ccc(Cl)cn1	0	.	.	.	-0.5	-2.8	.	4%	14	4
COc1ccc(OC)c(/C=N/NC(=O)c2ccc(=O)[nH]n2)c1	1	19	2	1.3	1.0	5.5	4.1	5%	2	-6
O=C(COc1coc(CN2CCN(c3cccc(Cl)c3)CC2)cc1=O)NC1CCCC1	.	1	-1	0.6	-0.1	7.7	-16	-3%	16	1
Cc1ccnc(NC(=O)C2CC(=O)N(c3ccc4c(c3)OCCO4)C2)c1 (centres undefined)	-19	5	12	-2.7	0.1	-2.0	-2.0	.	-11	-2
O=C(O)/C=C/C(=O)Nc1ccc(C(=O)c2ccccc2)cc1	1	15	9	0.6	1.0	?	1.4	5%	-25	-17
COc1ccc(NC(=S)Nn2cnnc2)c(OC)c1	6	17	11	1.6	1.0	.	5.1	.	.	-14

Screens: PubChem BioAssay, several laboratories
